KCNQ2 inh: KCNQ2 potassium channel inhibitors, primary screen, cell-based, CHO-K1, FluxOR thallium flux, B-score (AID 2156); Potassium voltage-gated channel subfamily KQT member 2 (Rattus norvegicus), O88943; 20 min; stronger effect = lower value; only compounds with negative scores are shown here; some inactives read as strong as hits; B-score at 10 µM; 310,000 compounds, 1.1% hits;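 active = fluorescence ratio B-score at most minus 3 library SDs, with starting brightness B-score within 2 library SDs, cut at about -5.5 in these data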
Target sequence (O88943 whole entry, looked up): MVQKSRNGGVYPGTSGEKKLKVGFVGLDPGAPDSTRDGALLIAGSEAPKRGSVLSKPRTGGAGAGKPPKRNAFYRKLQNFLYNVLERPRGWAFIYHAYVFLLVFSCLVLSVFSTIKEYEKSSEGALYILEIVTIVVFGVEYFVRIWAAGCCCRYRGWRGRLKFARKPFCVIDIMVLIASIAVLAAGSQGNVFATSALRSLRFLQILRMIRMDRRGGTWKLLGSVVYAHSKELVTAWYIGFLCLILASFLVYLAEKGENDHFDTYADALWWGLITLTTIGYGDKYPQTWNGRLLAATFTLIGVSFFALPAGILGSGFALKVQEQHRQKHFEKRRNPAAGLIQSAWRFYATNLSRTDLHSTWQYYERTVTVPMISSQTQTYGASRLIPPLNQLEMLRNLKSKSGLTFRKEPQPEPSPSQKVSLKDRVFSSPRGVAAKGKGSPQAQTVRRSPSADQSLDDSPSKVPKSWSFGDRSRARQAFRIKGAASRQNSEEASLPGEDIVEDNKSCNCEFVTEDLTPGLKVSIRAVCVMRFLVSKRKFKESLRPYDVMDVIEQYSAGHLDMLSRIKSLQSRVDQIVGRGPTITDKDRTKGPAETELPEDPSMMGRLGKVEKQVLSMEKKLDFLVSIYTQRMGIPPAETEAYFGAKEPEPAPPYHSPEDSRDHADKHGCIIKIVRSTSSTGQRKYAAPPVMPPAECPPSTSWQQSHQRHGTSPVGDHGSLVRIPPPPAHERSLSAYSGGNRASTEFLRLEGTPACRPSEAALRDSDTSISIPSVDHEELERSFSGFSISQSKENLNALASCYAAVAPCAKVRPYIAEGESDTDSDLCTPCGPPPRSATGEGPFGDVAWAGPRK
KCNQ2 inh baseline: recorded beside KCNQ2 inh, whose call it bears; B-score; measured here: initial fluorescence intensity artifact check;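 brightness before thallium and not channel activity; 0 = typical well and far values either way flag optical interference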
Starred values were filed as active, the others as inactive; i = inactive.

SMILES	KCNQ2 inh	KCNQ2 inh baseline
Cc1n[nH]c(=O)c2c(NC(=O)COC(=O)c3cc(F)cc(F)c3)oc(C)c12	i	-0.67
Cc1nc(-c2nnc(SCC(=O)Nc3cc(C(F)(F)F)cc(C(F)(F)F)c3)n2C)cs1	i	-0.22
CCCc1cc(C(=O)NC2CCCC2)no1	i	0.3
COc1cccc(CNC(=O)C(=O)NCC2OCCCN2S(=O)(=O)c2cc(C)ccc2C)c1 (configuration not stated)	i	-1
CCSc1nc(-c2ccccc2)c2cc(Cl)ccc2n1	i	-0.98
O=C(NN=C1C2CC3CC(C2)CC1C3)c1cccc(S(=O)(=O)N2CCOCC2)c1	i	1.2
CCN(CC)c1nc(-c2ccccn2)nc(-c2ccccc2)c1C#N	i	0.01
Cc1ccc(Cn2c(C(C)Nc3nc(-c4ccc(F)cc4)cs3)nc3cc(C(F)(F)F)ccc32)cc1 (configuration not stated)	i	0.15
CCO[C@@H]1OC(C(=O)N2CCCCCCC2)=C[C@H](C2CCCCC2)[C@H]1CCCO	i	-2.9
CC(CN1CCOCC1)OC(=O)c1ccc(C(C)(C)C)cc1 (configuration not stated)	i	2.1
Cc1ccc(CC2C(=O)N(c3cc(C)ccc3C)C(=O)C2C)cc1 (configuration not stated)	i	-0.14
COC(=O)CNC(=O)COC(=O)c1ccc(OC)c([N+](=O)[O-])c1	i	0.92
O=C(OCn1nnc2ccccc2c1=O)c1cccnc1	i	-0.04
CCOC(=O)CCc1c(C)nc2c(c(C)nn2C(C)(C)C)c1C	-7.8*	-0.33*
COc1ccccc1/C=C/C(=O)NCc1cccnc1	i	-0.98
CCCc1[nH]nc2c1C(c1ccoc1)C(C#N)=C(N)O2 (configuration not stated)	i	-0.83
CC(C)CN(CC(C)C)CC(O)COc1ccc([N+](=O)[O-])cc1 (configuration not stated)	i	-3.2
CCCn1cnc2cc(NC(=O)c3cccs3)ccc21	i	2.7
CN1C(=O)c2ccc(C(=O)Nc3cccnc3)cc2C1=O	i	1.4
Cc1ccc(N/C=C/C(=O)c2ccccc2)cc1C	i	-0.23
N#Cc1nc(-c2ccccc2)oc1NCCN1CCCCC1	i	0.89
Nc1cccc(C(=O)Nc2ccco2)c1	i	1.5
O=C(CCCl)Nc1nc2c(s1)CCc1ccccc1-2	i	-0.34
COc1ccc(NC(=S)N2CCCC(c3nc4ccc(C)cc4[nH]3)C2)c(OC)c1 (configuration not stated)	i	0.23
O=[N+]([O-])c1ccc(Cl)c(S(=O)(=O)/N=C(/c2ccccc2)N2CCOCC2)c1	i	1
Other structures:
SMILES	KCNQ2 inh	KCNQ2 inh baseline
Cc1nc(SCC(C)C)[nH]c(=O)c1Cc1ccccc1	i	0.33
O=S(=O)(c1ccccc1Cl)N1CCCC1c1nc(-c2cccc(Cl)c2)no1 (configuration not stated)	-6.3*	2.9*
CN(C(=O)c1ccccn1)C1(C(=O)NC2CCCCC2)CCCCC1	i	-0.66
CCC1S/C(=N/N=C/c2cccs2)NC1=O (configuration not stated)	i	1.5
O=C(Cc1cn2ccsc2n1)OCc1ccccc1	i	2
CCn1cc(C(=O)N[C@H](C(=O)NCCCN2CCOCC2)C(C)C)c(=O)c2cc3c(cc21)OCO3	i	0.51
COC(=O)COc1ccc(S(=O)(=O)N2CCOCC2)cc1	i	2.5
CC(C)c1nc(SCc2ccccn2)c2c(=O)n(C)c(=O)n(C)c2n1	i	0.76
CC(C)C1Oc2ccccc2N(CC(=O)N(C)C2CCCCC2)C1=O (configuration not stated)	i	1.9
O=C(CN1C(=O)CSc2ccc(S(=O)(=O)N3CCCCC3)cc21)NCc1cccnc1	i	-0.04
CN(C)c1ccc(P(=O)(OCc2ccccc2)C(O)c2ccccc2)cc1 (configuration not stated)	i	2
CCOc1nc(Nc2ccccc2)nc(OCC)n1	i	1.1
O=C(Cc1cc(=O)[nH][nH]1)N/N=C/c1c(Cl)cccc1Cl	i	-0.11
Cc1ccc(OCC(=O)Nc2ccc(S(=O)(=O)Nc3ccccn3)cc2)cc1C	i	-1.7
CCOC(=O)c1ccccc1CN1C(=O)c2ccccc2S1(=O)=O	i	-0.04
CCOC(=O)C1CCCN(C2CC(=O)N(c3ccc(C(C)C)cc3)C2=O)C1 (configuration not stated)	i	0.62
O=C(N/N=C/c1cccc(OC(=O)c2cccc(Br)c2)c1)c1cccnc1	i	-1.1
CC(=O)c1c(C)[nH]c(C(=O)OCC(=O)N(C)C)c1C	i	-0.01
Clc1ccc2oc(SCc3cccnc3)nc2c1	i	-0.65
CO/N=C(/C(=O)N[C@@H]1C(=O)N2C(C(=O)O)=CCS[C@H]12)c1cnc(N)s1	i	2.2
Cc1ccc2c(c1)C(=O)c1ccccc1CS2=O (configuration not stated)	i	0.68
Cc1ccccc1CSc1nnc(-c2ccccn2)n1N	i	0.5
Cc1ccc(C(NC(=O)c2ccccc2S(C)(=O)=O)c2ccccc2)cc1 (configuration not stated)	i	-0.77
COc1cccc(C(=O)NC2CCN(CC(=O)NCc3ccccc3OC)CC2)c1	i	-0.85
COc1cc(N2N=C(c3ccccc3)CC2c2ccccc2)c(C=O)cc1C=O (configuration not stated)	i	1.9
More results follow.
SMILES	KCNQ2 inh	KCNQ2 inh baseline
Cc1cc(C)cc(NC(=O)CSc2nnc(-c3ccccc3Br)o2)c1	i	-0.24
COc1ccc(N2CCN(S(=O)(=O)c3ccc4c(c3)NC(=O)C(C)C(=O)N4)CC2)cc1 (configuration not stated)	i	0.17
Cc1[nH]c2ccccc2c1/C=C(/C#N)C(=O)NC(C)C	i	1
CCOC(=O)CC1COc2ccccc2N1C(=O)c1cccc([N+](=O)[O-])c1 (configuration not stated)	i	0.05
NC(=O)COC(=O)/C=C/c1ccc2ccccc2n1	i	-2.6
CC(C)C(=O)Nc1c(-c2ccccc2)c(=O)c2ccccc2n1C	i	0.33
COc1ccc(C(=O)COc2ncnc3cc(Cl)ccc23)cc1	i	2.1
N#C/C(=C\c1ccncc1)c1nc2c(s1)CCCC2	i	-0.49
CN(C)CC(C)(C)CNC(=S)Nc1ccc(S(=O)(=O)N2CCOCC2)cc1	i	-0.67
CNCc1cc(Cl)cc(OC)c1OC(C)C	i	1.4
O=C(CSc1ccccc1C(=O)NCCCN1CCCC1=O)NCc1ccco1	i	-0.22
O=C(NC(=S)Nc1cccc(Cl)c1N1CCCCC1)c1ccc2c(c1)OCCO2	i	-1.2
COc1ccc(S(=O)(=O)NCC(=O)NCc2cc(=O)n(C)c(=O)n2C)cc1F	i	-1.5
COc1cccc(COCCN2CCN(S(=O)(=O)c3ccc(C)cc3)CCC2=O)c1	i	2.1
Cc1ccc(N2CCN(c3ccc(C)cc3)C2c2ccncc2)cc1	i	1.3
COc1ccc(/C([O-])=C(/C(=S)Nc2ccc(C)c(C)c2)n2c[n+](C)c3ccccc32)cc1OC	i	2.5
CCOC(=O)c1c(NC(=O)CSc2n[nH]c(-c3ccco3)n2)sc(C)c1C	i	-0.63
COc1cc(C)nc(NS(=O)(=O)c2ccccc2Cl)n1	i	1
COc1cc(C)c(/C=C(\C#N)C(=O)Nc2cccc(C)c2)cc1C(C)C	i	0.12
CCN1CCN(S(=O)(=O)c2ccc(Cl)c(C(=O)N(C)CCOc3ccc(Cl)cc3)c2)CC1	i	-1.1
CC(=O)Nc1ccc(SCC(=O)N(CCC#N)c2ccc(C)cc2)cc1	i	0.45
COCCN(C(=O)CNC(=O)c1ccco1)C(C(=O)NC1CCCC1)c1ccc(OC)cc1 (configuration not stated)	i	2
COc1ccc(C)cc1NC(=O)CSc1nc2ccccc2nc1N1CCCCC1	i	-0.5
CC(=O)C1=C(C)N(Cc2ccccc2)C(=O)N[C@H]1c1cccc(C(F)(F)F)c1	i	0.46
Cc1cc(C)n2nc(C(=O)OCC(=O)N(CCC#N)c3ccc(F)cc3)nc2n1	i	0.51
Later entries:
SMILES	KCNQ2 inh	KCNQ2 inh baseline
CC(C)CNC(=O)c1nn(Cc2ccccc2)c(=O)c2ccccc12	i	0.11
CSC1=NC2(CCCCC2)C2=C(CCCC2)N1	i	0.87
O=C(/C=C/c1cccnc1)c1ccc([N+](=O)[O-])cc1	i	-0.01
CCCCCC(=O)NC(NC(=S)N1CCOCC1)C(Cl)(Cl)Cl (configuration not stated)	i	1.9
COc1ccc(C(CNC(=O)c2ccc(Cl)s2)N2CCOCC2)cc1 (configuration not stated)	i	1.4
O=C(CCc1ccccc1)N1CCN(c2ccc(Cl)cc2)CC1	i	0.01
O=C(COC(=O)c1ccccc1NS(=O)(=O)c1cccs1)NC1CCCCC1	i	-0.1
O=C(CCNS(=O)(=O)c1ccc(Br)cc1)NCc1ccc2c(c1)OCO2	i	0.83
CCOCc1[nH]c(=S)[nH]c(=O)c1Cc1ccc(OC(C)C)cc1	i	-0.28
COc1ccc(N=NC2C(=O)N(c3ccccc3)N=C2C)cc1 (configuration not stated)	i	-0.16
COc1ccc(/C(N)=N/OC(=O)c2ccc(Br)o2)cc1	i	0.39
CC(=O)NC(CC(=O)OCC(=O)c1c(N)n(C)c(=O)n(C)c1=O)c1ccccc1 (configuration not stated)	i	2.2
Oc1ccc2ccccc2c1N=Nc1ccc(F)cc1	i	0.28
CCC1CCCCN1S(=O)(=O)c1ccc(C(=O)Nc2nnc(-c3ccccc3Cl)o2)cc1 (configuration not stated)	i	0.07
CCn1ccc(C(=O)Nc2ccsc2C(=O)OC)n1	i	1.2
O=C(NC1CCCC1)C(c1ccncc1)N(C(=O)c1ccco1)c1ccccc1 (configuration not stated)	i	1.5
CC(C)(C)c1ccc(NC(=O)c2ccc3c(c2)S(=O)(=O)c2ccccc2C3=O)cc1	i	0.89
COc1ccc(C2C(C#N)=C(N)OC3=C2C(=O)CC(C)C3)c(OC)c1OC (configuration not stated)	i	-1.5
CCN1CC2=C(OC(N)=C(C#N)C2c2cccs2)/C(=C\c2cccs2)C1 (configuration not stated)	i	-2.3
c1cncc(CNc2ccc3c(c2)OCO3)c1	i	-3.6
CC(C)n1c(O)c(N=NC(=O)Cn2ccc(C(F)(F)F)n2)c2ccccc21	i	-0.38
O=C(N1CCOCC1)N(Cc1ccccc1)c1ccccn1	i	-0.15
Cc1ccc(C(=O)CSc2nccn2-c2ccccc2)cc1	i	-0.02
COc1cccc(CNC(=O)CCN2C(=O)[C@@H]3Cc4ccccc4CN3C2=O)c1	i	-0.18
COc1ccc(C2C(C(=O)NCc3ccccn3)c3ccccc3C(=O)N2C)cc1OC (configuration not stated)	i	3.6
Continuation:
SMILES	KCNQ2 inh	KCNQ2 inh baseline
Oc1[nH]c2ccc(Br)cc2c1N=NC(=S)N1CCOCC1	i	-2.5
COc1ccc(-c2cc(C)nc(SCc3cccc(C(=O)O)c3)n2)cc1	i	0.06
CC1(C)CC(=O)C2=C(C1)N(c1ccccc1)C(N)=C(C#N)C2c1ccsc1 (configuration not stated)	i	0.03
CCOC(=O)C1(CC2CC2)CCN(Cc2cnc(-c3ccc(OC)cc3)nc2)CC1	i	-1.4
CCN(CC)C(=O)NC1CC(=O)N(c2ccc(OC)cc2)C1 (configuration not stated)	i	-0.21
CC(=O)Nc1cccc(NC(=O)CSc2nnc3ccc(-c4ccncc4)nn23)c1	i	-0.34
O=C(CSc1ccccn1)Nc1ccc(F)c([N+](=O)[O-])c1	i	-1.5
CCCCOc1ccc(C(=O)NCC(=O)NCC(c2ccc(OC)cc2)N2CCCC2)cc1 (configuration not stated)	i	-0.69
COc1cc(C)c(Br)cc1S(=O)(=O)NCCCN1CCOCC1	i	-3.5
O=C(c1ccc(Cl)c([N+](=O)[O-])c1)N1CCN(c2ccccc2)CC1	i	1.5
Cc1ccccc1NC(=S)NC1CCCC1	i	-2.1
COc1cc2c(cc1OC)C(C)N(C(=O)Nc1cc(C)cc(C)c1)CC2 (configuration not stated)	i	1.5
Cc1cccc(N2CCN(C(=O)C(C)n3nc(C)n4c(cc5occc54)c3=O)CC2)c1C (configuration not stated)	-6.1*	0.39*
O=C(CSc1n[nH]c(-c2cccs2)n1)N1CCCCC1	i	1.8
O=C(CCN1C(=O)c2ccccc2C1=O)NCc1ccc(Cl)cc1	i	-1.6
O=[N+]([O-])c1cccc(-c2nnc(SCc3cccnc3)o2)c1	i	0.06
O=C(NCc1ccco1)C1CCCN(S(=O)(=O)c2ccc(Cl)cc2)C1 (configuration not stated)	i	-0.07

From PubChem BioAssay

Only part of the results is shown; rates above refer to the full screens.
